High-throughput results (PubChem)
D2 potentiator = positive allosteric modulators of human D2 dopamine receptor | P14416 | DiscoveRx D2 beta-arrestin cells, luminescence, 90 min; 100% = 57 uM dopamine signal | potentiation, % (no concentration beside the values) | actives 0.23% (n = 360,000) | AID 624464; active = potentiation of 50% or more; inconclusive = 30% to 50%; inactive = 30% or less;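 also: compound concentration not given in the record; tested on top of an EC20 dose of dopamine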
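D2 cells co-treated with compound plus 50 nM dopamine (EC20) for 90 min at 37 deg C to detect potentiation. Beta-arrestin recruitment was read as enzyme-fragment luminescence after 1 h at ambient temperature. Full response was set by 57 uM dopamine.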
Menin MLL FP FL = inhibitors of human menin-MLL interaction, wild-type MLL peptide. Fluorescence polarization, fluorescein-MLL peptide displacement from menin. FP activity change, % at 61.4 µM. 290,000 tested, under 10 active. AID 1766; inconclusive = falling polarisation curve, or a change in total fluorescence; inactive = total fluorescence flat and polarisation flat or rising; no compound was filed as active; the % refers to the polarisation; negative = inhibition;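 also: % of control where 0% means no effect; inhibitors lower the polarisation; unlabelled MLL peptide was the positive control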
gsp antagonist = antagonizes gsp, the McCune-Albright syndrome mutation | gsp-mutant cells, cAMP HTRF, 30 min; control for the full effect not named in the record | Potency, µM (doses to about 76.9 µM), inactives show at the top dose activity change, negative = inhibition, actives largely listed as inhibitors | actives 0.4% (n = 340,000) | AID 624288; active = falling curve of any shape with a large fitted effect; inconclusive = falling curve, mostly with a smaller effect; inactive = flat or rising curve; cell line not stated here;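 also: intracellular cAMP measured with PDE inhibitor Ro 20-1724 present during compound exposure; potency is read from the fitted curve at half-maximal effect; % is scaled to controls: 0 for no effect and ±100 for the full control effect; nearly all actives have a fitted effect of over 65% in size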
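Measurement of cellular cAMP by homogeneous time-resolved fluorescence following a 30 min compound exposure at 37C. The PDE inhibitor […] was present throughout; the assay buffer was DPBS with 0.05% BSA and 0.005% Tween 20.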
gsp ag = activates gsp, the McCune-Albright syndrome mutation | Potency, µM (top dose mostly 76.9 µM), without a hit: at the top dose activation (cAMP increase), usual class: activators | AID 624287 | actives 0.13% (n = 340,000) | gsp mutant cells, cAMP HTRF, 30 min; control for the full effect not named in the record; active = well fitted activation curve with a large enough effect; inconclusive = small, poorly fitted or top-dose-only effect, or another doubt; inactive = no such curve, though single readings can be large or run the other way; cell line not stated here;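 also: phosphodiesterase inhibitor Ro 20-1724 added with compounds to block cAMP breakdown; potency is read from the fitted curve at half-maximal effect; nearly all actives have a fitted effect of over 60% in size; about a fifth of the inactives were tested at one dose only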
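Cells stably selected in G418 were plated at 2000/well, grown 16-24 hr, then given compounds in DMSO with the PDE inhibitor […] (300 uM solution added) for 30 min at 37C; cAMP was read by HTRF.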
Sfp PPTase inh = blocks B. subtilis Sfp PPTase activity | Q9F4F7 | actives 3.5% (n = 310,000) | Potency, µM, inactives show max response, negative = inhibition, usual class: inhibitors | AID 1490 | Biochemical Sfp PPTase activity, qHTS; active = well fitted inhibition curve with a large enough effect; inconclusive = small, poorly fitted or top-dose-only effect, or another doubt; inactive = no such curve, though single readings can be large or run the other way;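 also: the enzyme is Sfp with the accession as filed and its product quenches rhodamine fluorescence; potency is read from the fitted curve at half-maximal effect; 0% = enzyme reaction without inhibitor and -100% = no enzyme wells; top concentration of the series not given in the record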
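Reaction rates are the 30-min fluorescence difference (ex 525, em 598 nm) in wells containing 15 nM Sfp, 5 uM rhodamine-CoA and 12.5 uM BHQ-2-YbbR at pH 7.6 with 10 mM MgCl2.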
TRPV1 potentiator = enhances activation of the human vanilloid receptor TRPV1; potentiation, % at 8.33 µM; TRPV1-expressing cells, Fluo-8 calcium influx, capsaicin EC20 potentiation; host cell line not named in the record; control for the full effect not named in the record; actives 0.02% (n = 320,000); Q8NER1; active means potentiation above 80%; inconclusive means 30% to 80%; inactive means below 30%; also: 0% is about no effect
Target sequence (Q8NER1 whole entry, looked up): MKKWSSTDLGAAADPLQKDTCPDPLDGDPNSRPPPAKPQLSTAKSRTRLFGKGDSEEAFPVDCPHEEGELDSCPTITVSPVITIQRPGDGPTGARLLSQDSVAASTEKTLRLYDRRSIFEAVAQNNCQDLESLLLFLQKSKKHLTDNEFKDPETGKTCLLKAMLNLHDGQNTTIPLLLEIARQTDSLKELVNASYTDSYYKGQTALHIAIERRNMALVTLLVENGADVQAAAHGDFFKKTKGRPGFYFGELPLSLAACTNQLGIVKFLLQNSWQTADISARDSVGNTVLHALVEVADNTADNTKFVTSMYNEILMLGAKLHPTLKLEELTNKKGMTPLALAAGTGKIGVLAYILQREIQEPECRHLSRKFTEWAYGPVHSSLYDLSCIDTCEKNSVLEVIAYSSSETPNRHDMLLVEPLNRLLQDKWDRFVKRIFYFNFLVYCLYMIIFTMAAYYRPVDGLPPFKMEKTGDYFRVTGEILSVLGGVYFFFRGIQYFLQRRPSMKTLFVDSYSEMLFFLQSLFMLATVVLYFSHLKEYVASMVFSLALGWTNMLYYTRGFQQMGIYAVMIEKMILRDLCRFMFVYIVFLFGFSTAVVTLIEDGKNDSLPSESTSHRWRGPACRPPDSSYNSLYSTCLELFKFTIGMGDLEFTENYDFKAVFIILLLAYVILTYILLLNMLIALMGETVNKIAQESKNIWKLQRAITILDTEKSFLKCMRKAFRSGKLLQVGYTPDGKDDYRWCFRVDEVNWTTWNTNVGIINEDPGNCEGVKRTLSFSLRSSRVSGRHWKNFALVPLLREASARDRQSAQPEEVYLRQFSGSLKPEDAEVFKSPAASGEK
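TRPV1-expressing cells were cultured overnight at 35.5C and loaded with Fluo-8 calcium dye for 40 to 90 min at room temperature. After a 10 s baseline, compound was added and calcium influx was read kinetically for 3 min (ex 480/em 520 nm).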
ClpP mod = qHTS Assay for Activators of ClpP; purified B. subtilis ClpP, FRET peptide cleavage, 20 min; Potency, µM (titrated, usually from 57.5 µM), without a hit: at the highest dose activity change, negative = active; actives 1.9% (n = 340,000); active = well fitted falling curve with a large enough effect; inconclusive = small, poorly fitted or top-dose-only effect; inactive = no such curve, though single readings can be large or run the other way; also: potency is read from the fitted curve at half-maximal effect; the source files actives as falling curves though it sought activators and does not explain the sign; nearly all actives have a fitted effect of over 65% in size; many hits overshoot -100%
Target sequence (P80244 whole entry, looked up): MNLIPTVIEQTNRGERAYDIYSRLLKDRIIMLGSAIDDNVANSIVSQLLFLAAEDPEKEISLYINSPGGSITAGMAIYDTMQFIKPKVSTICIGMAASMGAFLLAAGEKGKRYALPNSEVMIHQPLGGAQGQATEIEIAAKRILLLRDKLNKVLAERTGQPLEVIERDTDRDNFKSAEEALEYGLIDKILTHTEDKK
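FRET quenching reversal measured ClpP activation: 10 microg/mL B. subtilis ClpP at pH 8 with the FRET-FV decapeptide, read at 430 nm after 320 nm excitation. The 20-min minus 0-min signal was scaled between DMSO/no-enzyme wells and ADEP (5.8 microM final).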
Numbers without * were called inactive; ? = inconclusive; . = not tested or not shown; & = joins results of further samples; [ ] = remark or other dose.

| mol | D2 potentiator | Menin MLL FP FL | gsp antagonist | gsp ag | Sfp PPTase inh | TRPV1 potentiator | ClpP mod |
| --- | --- | --- | --- | --- | --- | --- | --- |
| O=S(=O)(/N=C(/NS(=O)(=O)c1ccccc1)c1ccccc1)c1ccccc1 | -4.6 | 37.6[activator] | 5.4% | -0.1%[15.4 µM] | 17.1% | 15.9 | . |
| CCOc1ccccc1OCC(=O)O | -5.6 | -3.6 | 4.4% | 12.3% | -4.8% | 5.1 | -2.1% |
| O=[N+]([O-])c1ccc(N2CCCCCC2)c(S(=O)(=O)N2CCCCC2)c1 | -4.8 | -0.4 | -14.0% | -4.8% | 6.1% | -7.9 | -0.7% |
| Cc1c(Br)c([N+](=O)[O-])nn1CCCC(=O)Nc1sc2c(c1C(N)=O)CCC(C)C2 (stereo not given) | -11.8 | -1.3 | -11.0% | 1.8% | 1.8% | 3.3 | ? |
| NC(=O)C1CCCN(C(=O)CN2C(=O)NC(c3ccccc3)(c3ccccc3)C2=O)C1 (stereo not given) | -0.7 | . | 5.6% | -14.2%[15.4 µM] | . | 14.1 | . |
| CCOC(=O)c1cnn2c(C(F)F)cc(C3CC3)nc12 | -11.7 | 4.2 | 6.4% | -23.1% | -1.5% | 1.8 | -13.4% |
| COCc1cc(C)nc(SCc2ccccc2Cl)c1C#N | -6.8 | -1.9 | -9.0% | 14.2% | -20.9% | 1.2 | -2.0% |
| N[C@H]1C(O)O[C@H](CO)[C@@H](O)[C@@H]1O (stereo not given in full) | 13.5 | . | 0.9% | . | . | 10.3 | 2.1% |
| O=C(O)CCc1ccc(-c2ccc(Cl)cc2)o1 | 0.8 | 3.6 | -14.5% | 17.3% | 20µM* | 0.3 | ? |
| C/C(=N\NC(=O)c1ccn(C)n1)c1cccc(NC(=O)c2ccc(C)s2)c1 | -1.3 | -1.9 | -4.5% | -21.0%[15.4 µM] | 16.0% | 1.2 | -1.9% |
| Cc1ccc(-c2nn(CCC(N)=O)c(=O)c3ccccc23)cc1 | -0.1 | -3.1 | -7.2% | -27.8% | 9.0% | 3.3 | -2.1%&-4.0% |
| CCOC(=O)C1C(=O)NC(c2ccccc2)=NC1c1ccc(Cl)cc1 (stereo not given) | -6.6 | 0.8 | 6.0% | -9.0% | -0.3% | 6.1 | -0.9% |
| Nc1cc(Cl)ccc1Oc1ccc(Cl)cc1 | -2.7 | -1.6 | 3.8% | -32.7%[inhibitor] | -10.4% | 6.9 | -0.3% |
| CCCCNC(=S)NCc1ccc2[nH]c(C)cc2c1 | -11.8 | 1.3 | 5.4% | -23.1% | 2.8% | 4.8 | 1.6% |
| CC(C)(C)c1nc2ccccc2c2nnc(SCC(=O)Nc3nc4ccccc4s3)n12 | 7.7 | 5.8 | -1.1% | -1.2% | 0.1% | -0.8 | 6.0% |

Rewritten with values under each structure: 2 of the compounds above.
Values in the order: D2 potentiator	Menin MLL FP FL	gsp antagonist	gsp ag	Sfp PPTase inh	TRPV1 potentiator	ClpP mod
Nc1cc(Cl)ccc1Oc1ccc(Cl)cc1
    -2.7	-1.6	3.8%	-32.7%[inhibitor]	-10.4%	6.9	-0.3%
NC(=O)C1CCCN(C(=O)CN2C(=O)NC(c3ccccc3)(c3ccccc3)C2=O)C1 (stereo not given)
    -0.7	.	5.6%	-14.2%[15.4 µM]	.	14.1	.

Other results follow.
| mol | D2 potentiator | Menin MLL FP FL | gsp antagonist | gsp ag | Sfp PPTase inh | TRPV1 potentiator | ClpP mod |
| --- | --- | --- | --- | --- | --- | --- | --- |
| CC1CCN(S(=O)(=O)c2nnc(NC(=O)c3ccccc3Br)s2)CC1 | -4.6 | 2.0 | -4.0% | ? | 24.0% | 14.7 | -7.3% |
| COc1ccc(OCc2n[nH]c(=S)n2N)cc1 | -18.9 | 1.0 | -1.5% | 1.8% | -87.4% | 4.2 | -0.6% |
| CCNC(=O)CN1c2cccc3cccc(c23)S1(=O)=O | -2.5 | -0.9 | -3.5% | -11.1% | 5.2% | -0.5 | -14.3% |
| COC(=O)C1=C(N)c2ccccc2C1(C#N)c1ccccc1 (stereo not given) | -10.9 | 1.0 | -2.3% | -7.6% | -9.4% | -5.1 | ? |
| CCO/N=C1\C(=O)N(c2ccccc2)c2ccccc21 | -10.0 | -1.3 | -22.1% | 6.6%[15.4 µM] | 7.5% | 12.4 | . |
| COc1ccccc1OCCCC(=O)Nc1nnc(C2CCCO2)s1 (stereo not given) | -4.2 | . | 7.0% | 13.9% | 4.4% | 16.4 | -1.9% |
| Cc1c(C(=O)Nc2ccccc2F)sc2ncn(CC(=O)N3CCCCC3)c(=O)c12 | -8.2 | -3.5 | -10.2% | -0.2% | -6.3% | ? | 0.3% |
| O=C(c1ccc(F)cc1)C1CCN(C(=O)c2ccccc2)CC1 | -6.2 | 1.1 | 6.5% | -6.6%[15.4 µM] | 21.8% | -6.4 | -2.3% |
| COc1cccc(N2CCN(C(=O)c3ccc(CS(=O)Cc4ccccc4Cl)o3)CC2)c1 (stereo not given) | -7.1 | -11.7 | -14.8% | -68.0%[inhibitor] | 0.4% | 18.1 | -2.2% |
| O=C(O)c1cc(-c2ccc(-c3ccc(F)cc3)o2)nc2ccccc12 | -4.1 | 10.0 | -21.8% | ? | 3.55µM* | 3.2 | 3.9% |
| CSc1cccc(NC(=S)NC(=O)CCc2ccccc2)c1 | -6.7 | 5.0 | -5.9% | -15.3% | 8.6% | 17.1 | -1.0% |
| Cc1cccc(C(=O)N2CCNC(=O)C2CC(=O)Nc2cccc(Cl)c2)c1 (stereo not given) | -2.7 | . | 5.8% | -26.8% | 21.9% | 19.8 | -0.1% |
| Cc1ccc(-n2[nH]c(C)c(C=Nc3ccc(S(=O)(=O)Nc4nccs4)cc3)c2=O)cc1C | -5.2 | 6.3 | -23.7% | -44.6%[inhibitor] | 5.0% | 20.1 | -0.4% |
| COc1ccc(-c2csc(-c3[nH]cnc3N)n2)cc1 | 7.1 | 13.3 | . | 2.0%[15.4 µM] | 8.2% | 7.6 | . |
| CC(C)N(C(=O)CSc1ncnc2sc(-c3ccccc3)cc12)C(C)C | 20.1 | 1.9 | -4.4% | 10.3% | -12.3% | -15.5 | ? |

Structural class, the entries above containing a cyano group.
| mol | D2 potentiator | Menin MLL FP FL | gsp antagonist | gsp ag | Sfp PPTase inh | TRPV1 potentiator | ClpP mod |
| --- | --- | --- | --- | --- | --- | --- | --- |
| COCc1cc(C)nc(SCc2ccccc2Cl)c1C#N | -6.8 | -1.9 | -9.0% | 14.2% | -20.9% | 1.2 | -2.0% |
| COC(=O)C1=C(N)c2ccccc2C1(C#N)c1ccccc1 (stereo not given) | -10.9 | 1.0 | -2.3% | -7.6% | -9.4% | -5.1 | ? |

Other results follow.
smiles	D2 potentiator	Menin MLL FP FL	gsp antagonist	gsp ag	Sfp PPTase inh	TRPV1 potentiator	ClpP mod
Cn1cc(Br)c(C(=O)NC2CCCCC2)n1	-10.8	-5.4	5.9%	4.3%	15.8%	3.9	0.2%
O=[N+]([O-])c1cc(C=NN2CCCCCC2)ccc1Cl	-17.3	.	-1.1%	18.9%[15.4 µM]	.	.	28.2µM*
CCOC(=O)c1c(C)oc2c1c(C(c1ccncc1)N1CCOCC1)c(O)c1ccccc12 (stereo not given)	69.2*	5.4	-7.4%	0.8%	?	20.7	0.8%
CCn1c(SCC(=O)Nc2cc(C)on2)nc2sc3c(c2c1=O)CCCC3	-9.4	1.0	9.4%	?	-10.2%	-6.9	-7.6%
CC1CCCN(c2ccc(F)cc2N)C1 (stereo not given)	-10.6	-1.3	4.9%	7.1%[15.4 µM]	-11.6%	-2.0	.
CCN(CC)C(=O)N1CCC(NC(=O)c2ccc(C(C)(C)C)cc2)CC1	-20.4	-1.3	14.3%	?	17.1%	-5.8	-1.2%
CC(NC(=O)c1ccc(Cl)cc1)C(=O)NC1=NCCS1 (stereo not given)	-9.9	2.2	11.7%	6.0%	7.2%	3.6	1.5%
O=C(COC(=O)c1cc([N+](=O)[O-])ccc1NCCO)Nc1cccnc1Cl	-5.9	.	3.5%	?	.	.	.
O=C1CSc2ccccc2N1	-23.5	.	-0.2%	-22.9%[15.4 µM]	.	.	1.2%
CC(C)C(NC(N)=O)C(=O)NC1CCCCC1 (stereo not given)	.	1.7	.	.	11.5%	1.1	.
O=C(CCc1ccc(S(=O)(=O)N2CCOCC2)cc1)N/N=C/c1ccc(F)cc1F	-6.7	0.0	-24.6%	-21.9%[15.4 µM]	26.9%	-3.5	?
CC1(C)Cc2nc3sc4c(SCC(=O)NCc5ccco5)ncnc4c3cc2CO1	-8.0	1.4	-3.6%	14.9%	?	-16.8	-4.6%
O=C(CSc1nc2ccccc2s1)Nc1cc(S(=O)(=O)N2CCOCC2)ccc1Cl	-3.2	11.4	-29.9%	3.8%	?	-6.2	-7.5%
CCOC(=O)CCSc1nc2c(c(C(F)(F)F)c1C#N)CCC2	-17.8	1.2	?	-23.0%	-15.4%	-10.7	?
CN(Cc1ccon1)Cc1cn(Cc2ccccc2)nc1-c1ccc2c(c1)OCO2	-7.5	-2.3	-5.9%	14.4%	-1.1%	-2.8	-1.6%
N#C/C(=C/c1ccc(C(=O)O)cc1)C(=O)Nc1ccccc1	2.4	0.1	?	-3.2%[15.4 µM]	?	3.2	.
Cc1cccc(OCC(=O)N/N=C2/SCC(=O)N2Cc2ccco2)c1	-2.7	4.9	-0.4%	1.7%[15.4 µM]	4.3%	-4.7	.
CCCN(C(=O)Cc1nc(N)n[nH]1)C1(C(=O)Nc2c(C)cccc2C)CCCCC1	-2.6	-1.3	2.0%	?	13.1%	.	1.1%
CCOC(=O)c1c(C)[nH]c(C(=O)COC(=O)C2(C)CC2(Cl)Cl)c1C (stereo not given)	4.2	1.8	?	-33.9%[inhibitor]	0.9%	-19.6	-1.9%
CN(CC(=O)N1CCc2ccccc2C1)c1ccccc1	-3.8	3.1	7.1%	-1.0%	-9.0%	-15.5	.
Cc1nnc(NC(=O)CSc2n[nH]c(-c3ccccc3)n2)s1	-3.7	-2.1	-7.1%	0.6%	6.2%	5.4	-1.5%
CCN(CC)C(=O)C1=C(C)N(Cc2ccc(C(C)(C)C)cc2)C(=O)C(CC(=O)NC2CCCCC2)C1 (stereo not given)	1.4	.	.	28.6%	.	.	1.6%
